# Source: PubChem (National Center for Advancing Translational Sciences (NCATS))
# PINK1 modulator: PINK1 expression modulation; PINK1 immunofluorescence, high-content cytometry, 24 h; Potency, µM (series often up to 76.6 µM), inactives show at the highest dose activation (PINK1 increase), most hits filed as activators; hit rate 0.2% among 410,000; AID 624263; active = well fitted activation curve with a large enough effect; inconclusive = small, poorly fitted or top-dose-only effect; inactive = flat fitted curve, though single readings scatter; cell line not stated here;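 also: potency is read from the fitted curve at half-maximal effect; % of control where 0% means no effect; nearly all actives have a fitted effect of over 65% in size; a mitochondrial uncoupler was the plate control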
#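 Compound titrations (5 concentrations, 24 h) on a stable cell line; DMSO and CCCP controls. Endpoint: fixed-cell PINK1 immunofluorescence with mitochondrial, cell and nuclear markers, scanned by microplate cytometer.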
# Six1-Eya2 blk: blocks human Six1 binding to Eya2. Q15475+O00167. AlphaScreen GST-Six1/His-Eya2 binding, biochemical; hits give low values; control for the full effect not named in the record. activity change, % (test concentration not listed). hit rate 0.56% among 360,000. AID 651725; in the data active = activity change below about -65%; inconclusive = about -30% to -65%; inactive = above about -30%; also: % is scaled to controls: 0 for no effect and ±100 for the full control effect; compound concentration not given in the record
#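 Homogeneous AlphaScreen proximity assay pairing GST-Six1 with His-tagged Eya2 (added as 5X mix: 250 nM and 500 nM) in 50 mM Tris pH 8.0, 300 mM NaCl, 1 mM TCEP. Glutathione donor and nickel acceptor beads; 1 h, 37 °C, dark.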
# D2 agonist: human D2 receptor agonism in beta-arrestin assay | P14416 | DiscoveRx PathHunter D2 beta-arrestin, luminescence, 90 min; 100% = 57 uM dopamine signal | activation, % (test concentration not listed) | hit rate 0.084% among 360,000; in the data active = activation above about 40%; inconclusive = about 15% to 40%; inactive = below about 15%; also: compound concentration not given in the record; the text of the record calls up to 30% inactive
# Target sequence (P14416 whole entry, looked up): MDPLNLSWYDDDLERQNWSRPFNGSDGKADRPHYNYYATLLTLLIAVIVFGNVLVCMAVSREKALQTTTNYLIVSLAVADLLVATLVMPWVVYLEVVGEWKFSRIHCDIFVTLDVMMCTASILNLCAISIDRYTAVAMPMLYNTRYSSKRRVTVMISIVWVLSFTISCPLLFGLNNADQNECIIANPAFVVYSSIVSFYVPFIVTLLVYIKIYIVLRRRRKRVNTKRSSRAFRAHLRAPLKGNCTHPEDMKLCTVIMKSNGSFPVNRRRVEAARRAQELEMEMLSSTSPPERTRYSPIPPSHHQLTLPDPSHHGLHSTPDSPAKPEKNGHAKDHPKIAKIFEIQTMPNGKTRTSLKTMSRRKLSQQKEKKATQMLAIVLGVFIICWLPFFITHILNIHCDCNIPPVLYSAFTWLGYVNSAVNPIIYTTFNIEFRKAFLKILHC
#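 DiscoveRx PathHunter D2 beta-arrestin cells (2,100/well) attached overnight, then compound-stimulated 90 min at 37 C in HBSS/10 mM HEPES/0.1% Tween-20 buffer; beta-galactosidase complementation read by luminescence after 1 h at ambient temperature. Dopamine 57 uM final (EC100) as control.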
# TRPML1 agonist: human mucolipin-1 channel agonism. Q9GZU1. TRPML1-expressing cells, Ca2+ dye fluorescence, FDSS; host cell line not named in the record; reference of the full effect not given here. activation, % (concentration not given with the values). hit rate 0.12% among 410,000. AID 624414; in the data active = activation above about 50%; inconclusive = about 30% to 50%; inactive = below about 30%; also: 0% is about no effect; the text of the record puts the active cut at 80%
# Target sequence (Q9GZU1 whole entry, looked up): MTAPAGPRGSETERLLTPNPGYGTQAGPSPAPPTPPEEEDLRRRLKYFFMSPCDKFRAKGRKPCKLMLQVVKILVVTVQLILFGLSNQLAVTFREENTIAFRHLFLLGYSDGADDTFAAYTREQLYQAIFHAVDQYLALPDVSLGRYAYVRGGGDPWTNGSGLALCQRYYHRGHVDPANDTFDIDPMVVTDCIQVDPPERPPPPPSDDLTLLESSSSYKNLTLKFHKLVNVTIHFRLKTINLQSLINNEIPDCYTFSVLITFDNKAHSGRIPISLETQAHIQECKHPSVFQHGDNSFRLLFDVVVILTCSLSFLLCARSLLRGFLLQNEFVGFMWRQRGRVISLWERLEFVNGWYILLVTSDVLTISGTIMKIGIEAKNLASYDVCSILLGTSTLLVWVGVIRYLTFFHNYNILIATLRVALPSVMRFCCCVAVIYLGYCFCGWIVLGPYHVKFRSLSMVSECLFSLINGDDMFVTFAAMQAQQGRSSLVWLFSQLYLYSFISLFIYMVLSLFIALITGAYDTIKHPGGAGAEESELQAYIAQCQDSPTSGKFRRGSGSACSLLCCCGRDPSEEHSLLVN
#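 TRPML1-DL cells, Tet-induced overnight (~16 h, 37 degrees C), loaded 45-90 min at room temperature with Ca8 no-wash calcium dye plus quencher. FDSS fluorescence: 10 s baseline, compound pin-transfer, 110 s agonist read, then EC80 54-4 (4uM final) and 110 s antagonist read.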
# CtBP-E1A inh: CtBP/E1A binding inhibition | AlphaScreen GST-E1A/His-CtBP binding, 1536-well; hits give low values; control for the full effect not named in the record | activity change, % (no concentration beside the values) | hit rate 0.49% among 340,000; in the data active means activity change below about -65%; inconclusive means about -30% to -65%; inactive means above about -30%; also: % is scaled to controls: 0 for no effect and ±100 for the full control effect; compound concentration not given in the record
#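 Protein mix (5X: 125 nM each GST-E1A, His-CtBP) was incubated with pinned compound 2 h at 37 deg C in dark, in 50 mM Tris pH 8.0 buffer with 300 mM NaCl. Glutathione donor and nickel acceptor beads followed; AlphaScreen signal read after 1 h.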
# TRPML1 inh: inhibitors of human TRPML1 channel | AID 624415 | hit rate 0.02% among 390,000 | activity change, negative = inhibition, % (no concentration beside the values) | Q9GZU1 | TRPML1-inducible cells, Ca2+ dye fluorescence, FDSS; hits give low values; inhibition of EC80 agonist-evoked calcium signal; in the data active means activity change below about -50%; inconclusive means about -30% to -50%; inactive means above about -30%;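 also: stimulus is agonist 54-4 at its EC80 concentration; % is scaled to controls: 0 for no effect and ±100 for the full control effect; compound concentration not given in the record; the text of the record puts the active cut at -80%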
#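 TRPML1-DL cells, Tet-induced overnight (~16 h, 37 °C) at 1,500 cells/well, were loaded with Ca8 no-wash dye plus quencher for 45-90 min at room temperature. Compounds were pinned during FDSS kinetic reading; agonist 54-4 at EC80 (4 uM final) then added.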
# * marks the source's active call; other numbers are inactive results; ? = inconclusive; · = no result given; & = joins results of further samples; [ ] = dose if it differs, or a comment. Not a hit list; overall some 1% were active at least once.
smiles	PINK1 modulator	Six1-Eya2 blk	D2 agonist	TRPML1 agonist	CtBP-E1A inh	TRPML1 inh
CCCCC(NS(=O)(=O)c1ccc(C)cc1)C(=O)Oc1ccc2c3c(c(=O)oc2c1)CCC3 (configuration not stated)	1.9%	1	-2.3	0.8	4	-10
O=C(NCCCN1CCN(c2cccc(Cl)c2)CC1)c1cnn(-c2ccc(F)cc2)c1-n1cccc1	3.2%	·	·	2.3	·	-4
Cc1cccn2c(=O)nc(SCC(=O)Nc3cccc4ccccc34)nc12	3.1%	-6	0.6	0.2	7	1
CC1Cc2cc(S(=O)(=O)N3CCC(C(N)=O)CC3)ccc2N1C(=O)C1CC1 (configuration not stated)	1.4%	5	-4.4	-0.1	2	-1
O=C(N/N=C/c1sc(=O)n(Cc2ccc(Br)cc2)c1Cl)c1ccco1	18%	-7	5.9	1.2	-13	17
Cc1ccc(S(=O)(=O)N2CCN(S(=O)(=O)c3ccc(C)cc3)C2)cc1	-0.4%	11	0.7	1.4	5	8
CNC(=O)c1ccccc1S(=O)c1ccccc1COC(C)=O (configuration not stated)	1.7%	6	-2.3	0.4	-4	-4
C#CCOCCOCCOCCNc1nc(N2CCN(C(=O)[C@H](CCC(=O)O)n3cc([C@@H](N)[C@H](C)CC)nn3)CC2)nc(N2CCN(C(=O)[C@H](CCCCN)n3cc([C@@H](N)CC(N)=O)nn3)CC2)n1	-0.4%	-17	-0.9	0.4	-11	-16
O=C(Nc1nccs1)C1=COCCO1	-3.3%	6	-5.2	1.0	1	6
CC(=O)c1ccc(N2CCN(Cc3cc(=O)n4c(-c5ccccc5)csc4n3)CC2)cc1	-1.1%	1	-0.7	1.6	0	-11
CN1CCN(c2cc(N3CCN(C(=O)c4ccco4)CC3)c3c4c(onc24)-c2ccccc2C3=O)CC1	1.3%	?	6.9	-0.4	·	-11
COc1cccc(-c2cnc(C(O)c3cc(F)cc(Cl)c3)[nH]2)c1 (configuration not stated)	3.2%	-5	2.0	1.1	?	40
CCOc1ccc(Br)cc1CNc1ccc2c(c1)OCCO2	3.5%	-77*	-3.0	-1.1	?	-14
CC1=C(C)/C(=N\OS(=O)(=O)c2ccccc2)C=CC1=O	-1.6%	-2	?	4.4	2	1
COc1ccc(-c2nc(SCC(=O)N(CC(C)C)c3c(N)n(Cc4ccccc4)c(=O)[nH]c3=O)n[nH]2)cc1	0.5%	0	-1.1	1.8	-1	-16
O=C(NCCC1=CCCCC1)c1ccc(Cl)c(S(=O)(=O)N2CCCCC2)c1	3.0%	-26	-1.3	0.1	0	-14
Cc1cc(NC(=O)CSc2nc3sc4c(c3c(=O)n2C)CCCC4)no1	4.4%[38.3 µM]	-1	0.4	-0.4	1	11
Cc1cc(C)cc(-n2nnn(C3C/C(=N/NC(N)=S)C4OCC3O4)c2=S)c1 (configuration not stated)	1.0%	-11	-0.9	-0.3	-7	0
CCOC(=O)c1c(C)[nH]c(CCC(=O)Nc2c(C)cccc2CC)c1C	-0.5%	·	·	3.2	·	3
CCN(c1ccccc1)S(=O)(=O)c1ccc(C(=O)Nc2nnc(C3CC3)o2)cc1	4.0%	-6	-2.2	1.9	-24	13
O=C(O)CCC(=O)NCCn1c(-c2ccccc2)csc1=Nc1ccccc1	4.4%	1&3	1.6&-0.1	0.7&-0.3	2&35	3&7
O=C(NCc1ccc(F)cc1)c1cc2n(n1)CCCN(Cc1ccc(F)cc1)C2=O	-0.3%	·	·	0.1	·	-16
Cc1c(Cl)cccc1-c1ccc(CNCCSc2nnnn2-c2ccccc2)o1	0.4%	·	·	3.3	·	34
O=C(O)/C(=C\c1cn(-c2ccccc2)nc1-c1cccnc1)NC(=O)c1ccccc1	2.0%	9	-0.5	0.8	3	-5
CCC(CC)C(=O)Nc1nnc(S(=O)(=O)Nc2ccc(OC)cc2)s1	0.7%	9	-1.5	3.4	-6	-22
Cc1ccc(NC(=O)C2CCN(C(=O)c3ccc(Cl)cc3)CC2)nc1	1.2%	-1	0.1	0.6	3	23
CCCOc1ccc(C(=O)Nc2ccc(C)cc2[N+](=O)[O-])cc1	4.0%[38.3 µM]	-16	0.5	1.0	-24	3
Cc1cc(C)c2oc(C(=O)Nc3nc4ccc(Cl)cc4s3)cc(=O)c2c1	3.9%	·	·	0.4	·	0
Cc1ccc(C)n1-c1ccccc1N1CCCCC1	8.7%	-1	-5.8	-0.7	38	7
COc1cc(C)c(C(N)=O)c(OC)n1	6.6%	2	-5.0	-0.6	8	-6

# Retrieved by structure from the entries so far, three records:
smiles	PINK1 modulator	Six1-Eya2 blk	D2 agonist	TRPML1 agonist	CtBP-E1A inh	TRPML1 inh
Cc1cc(C)cc(-n2nnn(C3C/C(=N/NC(N)=S)C4OCC3O4)c2=S)c1 (configuration not stated)	1.0%	-11	-0.9	-0.3	-7	0
Cc1c(Cl)cccc1-c1ccc(CNCCSc2nnnn2-c2ccccc2)o1	0.4%	·	·	3.3	·	34
CCC(CC)C(=O)Nc1nnc(S(=O)(=O)Nc2ccc(OC)cc2)s1	0.7%	9	-1.5	3.4	-6	-22

# Going on with the list.
smiles	PINK1 modulator	Six1-Eya2 blk	D2 agonist	TRPML1 agonist	CtBP-E1A inh	TRPML1 inh
COc1ccc(C2CC(c3cccs3)=NN2C(=O)CSc2nnc(N)s2)cc1OC (configuration not stated)	4.2%	22	-2.7	-0.2	-18	-7
Cc1cc(NCCCO)n2nc(-c3cccs3)cc2n1	5.9%	3	2.3	0.7	4	8
Cn1nnnc1SCC(=O)N(C1CCCCC1)C1CCCCC1	5.7%	-7	-3.9	0.0	-2	-1
CCC(C)(C)NC(=O)CN(C(=O)CCC(=O)Nc1cc(C)ccn1)c1ccc2c(c1)OCCO2	0.2%	7	-4.4	-0.2	3	11
CCOc1ccc(CNS(=O)(=O)c2c(C(=O)N3CCCCCC3)c(C)n(C)c2C)cc1OC	-0.4%	·	·	1.5	·	-23
COc1cccc2sc(NC(=O)c3ccc4c(c3)OCCO4)nc12	6.2%	·	·	0.3	·	-11
CCOC(=O)C1CCN(c2nc3ccccc3n2CC(=O)c2ccccc2)CC1	2.1%	1	-6.3	-0.7	15	11
O=C1C2C(c3ccccc3)CC=CC2[C@H](c2ccc3ccccc3c2)N1Cc1ccccc1 (some centres not stated)	4.3%	-5	-2.2	0.0	-1	-4
Cc1ccc(-c2csc(NC(=O)Cc3cccs3)n2)cc1C	14%	3	2.5	1.4	-1	-12
CC12CS(=O)(=O)CC1SC(=S)N2c1ccccn1 (configuration not stated)	0.2%	1	-2.7	0.0	1	-4
Cc1nc2ccccc2c(C)c1CC(=O)N(C)CC(=O)Nc1cccc(F)c1	4.9%	9	-3.6	0.5	-6	13
CCc1ccc2c(c1)cc(C)c1nnc(SCC(=O)Nc3cc(OC)c(OC)cc3C(=O)O)n12	0.9%	1	2.7	0.5	-5	-26
O=C1N[C@H]2CC=C[C@H]2Nc2ccccc21	-0.1%	4	1.0	-0.2	-1	-13
COc1ccc2c(C)c(CCC(=O)NCCc3ccc(Cl)cc3)c(=O)oc2c1	1.3%	·	·	0.4	·	5
CCN1C(=O)C(CC(=O)NCCc2ccccc2)N(NC(=O)c2cccnc2)C1=S (configuration not stated)	-0.1%	-11	-3.3	-0.6	8	23
CNC(=S)N1CCN(S(=O)(=O)c2ccc3ccccc3c2)CC1	4.7%	-3	-0.9	-0.6	3	49
COc1ccccc1N/N=C/c1ccc2c(c1)OCO2	3.6%	-8	-2.9	-0.2	·	-8
CCCNc1c(NS(=O)(=O)c2ccc(Cl)s2)c(=O)oc2ccccc12	-0.7%	5	-0.9	1.5	-12	4
Cc1cccc(NC(=O)c2ccc([N+](=O)[O-])o2)n1	-5.1%	-2	2.6	-0.7	7	-7
O=C(Cn1c(=O)n(-c2cccc(Cl)c2)c(=O)c2sc3ccccc3c21)NC1CCCCC1	1.5%	·	·	-0.7	·	2
CC(=O)N=c1sc2c3ccccc3ccc2n1C	·	-7	0.0	-0.3	5	-8
CC1CCN(CC(O)COC2CC(C)CC(C)(C)C2)CC1 (configuration not stated)	1.7%	11	-1.4	2.5	10	10
COCCNC(=O)CSc1nc2cc(OC)c(OC)cc2c(=O)n1Cc1ccc(OC)cc1	10%	3	1.4	-0.4	-13	19
COc1ccc(Br)c(Cn2c(C)c(C(=O)NCc3ccccc3C(F)(F)F)sc2=O)c1	-0.4%	-7	3.9	0.4	0	·
COc1cc(Cn2c3ccc(NC(=O)NCCc4ccccc4)cc3c(=O)n2C)ccc1F	0.6%	-5	?	0.2	0	·
COC(=O)c1sc2c(c1C)c(=O)n(-c1ccccc1)c(=O)n2CC(=O)Nc1cccc(C)c1	7.4%	·	·	0.4	·	13
O=C(Cn1nc(C(F)(F)F)c2c1CCC2)Nc1ccc(Cl)cc1	?	·	·	-0.1	·	-1
COc1ccccc1CN=C1NC(=O)C(CC(=O)Nc2ccc(C(C)=O)cc2)S1 (configuration not stated)	-0.4%	6	-1.4	0.0	-6	-9
CCc1cc2c(NC(C(=O)O)C(C)C)ncnc2s1 (configuration not stated)	-0.2%	14	-2.0	-0.3	4	-1
CCCCC(=O)c1ccc(O)cc1O	3.3%	11	-2.8	0.0	5	3
CN(O)/C=N/C(=S)Nc1ccc(Cl)cc1Cl	0.6%	-1	-5.8	-0.4	11	7
CCOC(=O)c1c(NC(=O)CSc2nnc(C)s2)sc2c1CCC(CC)C2 (configuration not stated)	3.6%	0	-3.7	1.3	-13	0
CCc1nnc(NC(=O)Cn2c(=O)oc3ccccc32)s1	0.9%	9	-1.5	-0.6	2	-8
CCOCC(O)CS(=O)(=O)c1ccccn1 (configuration not stated)	-1.2%[38.3 µM]	2	0.5	1.9	1	22
CCOc1ccc(OCC)c(NC(=O)CSCCc2ccccn2)c1	2.2%	-10	-0.2	0.9	-2	-16
O=C(CNC(=O)c1ccccc1F)NCC(c1cccs1)N1CCOCC1 (configuration not stated)	0.5%	-3	-0.1	-1.0	·	10
Nn1c(SCC(=O)Nc2cccc(S(N)(=O)=O)c2)nnc1C1CC1	-1.1%	3	2.5	2.2	·	6
CCc1ccc(-n2cc(-c3ccc([N+](=O)[O-])cc3)[nH]c2=S)cc1	5.8%	0	3.5	0.9	-3	10
CC(Sc1nnc(C2CC2)n1C1CC1)C(=O)Nc1cccc(S(=O)(=O)N(C)C)c1 (configuration not stated)	1.6%	-1	-0.1	4.1	1	14
CCN(C(=O)CSc1nc2ccccc2[nH]1)c1ccccc1	0.3%	·	·	0.0	·	-12
